From PubChem BioAssay
Cruzain inh Det – qHTS Assay for Promiscuous and Specific Inhibitors of Cruzain (with detergent) | Cruzipain (Trypanosoma cruzi), P25779 | purified cruzain, Z-FR-AMC fluorescence, 0.01% Triton | Potency, µM, inactives show max response, negative = inhibition, most hits filed as inhibitors | 200,000 tested, 0.43% active | AID 1478, 2009; active = well fitted curve in the direction sought with a large enough effect; inconclusive = small, poorly fitted or top-dose-only effect, or another doubt; inactive = no such curve, though single readings can be large; an effect the other way counts as inactive or inconclusive;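 also: plate controls were neutral wells for no effect and buffer without enzyme for full effect; nearly all actives have a fitted effect of over 40% in size; top concentration of the series not given in the record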
Target sequence (P25779 123-467 limits assumed): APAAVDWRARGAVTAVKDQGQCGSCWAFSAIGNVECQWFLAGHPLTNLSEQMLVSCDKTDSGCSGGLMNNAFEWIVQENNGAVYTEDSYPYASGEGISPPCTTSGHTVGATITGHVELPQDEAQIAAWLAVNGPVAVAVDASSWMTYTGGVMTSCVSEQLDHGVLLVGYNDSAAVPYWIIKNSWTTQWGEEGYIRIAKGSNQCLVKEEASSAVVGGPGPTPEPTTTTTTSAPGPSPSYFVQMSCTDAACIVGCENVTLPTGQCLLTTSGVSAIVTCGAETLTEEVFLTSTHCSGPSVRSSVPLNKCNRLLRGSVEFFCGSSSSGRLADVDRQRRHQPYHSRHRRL
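Cruzain (1.5 nM) preincubated 15 min at RT with compound in 100 mM sodium acetate pH 5.5, 5 mM DTT, 0.01% Triton X-100. Reaction started with 2 uM Z-FR-AMC; AMC fluorescence (ex 360/em 450 nm) change over 60 s gave rate.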
SARS PLP yeast – qHTS of Yeast-based Assay for SARS-CoV PLP. 330,000 tested, 0.19% active. Potency, µM (titrated, usually from 32.9 µM), inactives show top-dose activity, positive = growth rescue. AID 485353, 2010. S. cerevisiae expressing SARS-CoV PLpro, growth rescue; control for the full effect not named in the record; also: 0% is about no effect; nearly all actives have a fitted effect of over 55% in size; growth read by luminescence after 48 h
RE007 growth inh – qHTS Assay for Inhibitors of the HIV-1 protein Vpr; 360,000 tested, 0.21% active; S. pombe RE007 Vpr strain, BacTiter-Glo ATP luminescence, 24 h; control for the full effect not named in the record; Potency, µM (top dose mostly 92.2 µM), for inactives: at the highest dose activity change, negative = less growth; active = well fitted falling curve with a large enough effect; inconclusive = small, poorly fitted or top-dose-only effect; inactive = no such curve, though single readings can be large or run the other way;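 also: % is scaled to controls: 0 for no effect and ±100 for the full control effect; nearly all actives have a fitted effect of over 50% in size; the assay follows cell death caused by Vpr and the record does not say whether a fall means rescue or toxicity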
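Fission yeast RE007 carrying one integrated HIV-1 vpr copy, seeded at OD 0.01 in PMG+AL medium with 23 nL pinned compound. Grown 24 h at 30 degrees; viability read by BacTiter-Glo luminescence after 5 min.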
StopGo reporter – High Throughput Screening for Foot and Mouth Disease Virus Antivirals; human cells with a luciferase reporter of 2A StopGo recoding; control for the full effect not named in the record; Potency, µM (series often up to 57.9 µM), for the others: at the top dose signal change, negative = less light; 410,000 tested, 1.2% active; active = well fitted falling curve with a large enough effect; inconclusive = small, poorly fitted or top-dose-only effect; inactive = no such curve, though single readings can be large or run the other way; tested in HEK293T cells; also: % is scaled to controls: 0 for no effect and ±100 for the full control effect; nearly all actives have a fitted effect of over 45% in size; luciferase light after 4 h
MARV entry inh – qHTS for inhibitors of binding or entry into cells for Marburg Virus. 300,000 tested, 1.8% active. Marburg virus pseudotyped entry inhibition, cell reporter; control for the full effect not named in the record; about a third of the inactives were read at about 46 µM. AID 540276, 2011. Potency, µM (titrated, usually from 37.8 µM), without a hit: at the top dose activity change, negative = inhibition, actives largely listed as inhibitors; active = well fitted inhibition curve with a large enough effect; inconclusive = small, poorly fitted or top-dose-only effect, or effect the other way; inactive = flat fitted curve, though single readings scatter; tested in HEK293 cells; about a fifth of its hits are not listed in these tables; also: % is scaled to controls: 0 for no effect and ±100 for the full control effect; luciferase read-out
LASV entry inh – qHTS for Inhibitors of binding or entry into cells for Lassa Virus | Potency, µM (highest dose often 37.9 µM), inactives show at the highest dose activity change, negative = inhibition, usual class: inhibitors | Lassa virus pseudotype entry inhibition, cell reporter; control for the full effect not named in the record | 300,000 tested, 1.2% active; active means well fitted inhibition curve with a large enough effect; inconclusive means small, poorly fitted or top-dose-only effect, or effect the other way; inactive means flat fitted curve, though single readings scatter; tested in HEK293 cells; also: % is scaled to controls: 0 for no effect and ±100 for the full control effect; nearly all actives have a fitted effect of over 50% in size; luciferase read-out
Cruzain inh noDet – qHTS Assay for Promiscuous and Specific Inhibitors of Cruzain (without detergent). AID 1476, 2009. 200,000 tested, 2.3% active. Potency, µM, without a hit: max response, negative = inhibition, hits mostly inhibitors. purified cruzain, Z-FR-AMC fluorescence, no detergent. Cruzipain (Trypanosoma cruzi), P25779; active = well fitted curve in the direction sought with a large enough effect; inconclusive = small, poorly fitted or top-dose-only effect, or another doubt; inactive = no such curve, though single readings can be large; an effect the other way counts as inactive or inconclusive;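 also: plate controls were enzyme without inhibitor for no effect and buffer without enzyme for full effect; nearly all actives have a fitted effect of over 40% in size; top concentration of the series not given in the record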
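Purified cruzain at 1.5 nM, pre-incubated 15 min with compound at room temperature in 100 mM sodium acetate pH 5.5, 5 mM DTT, 0.00005% Triton X-100. Reaction started with 2 uM Z-FR-AMC; AMC fluorescence increase over 60 s gives rate.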
NS1 function inh – qHTS Assay for Inhibitors of Influenza NS1 Protein Function. S. cerevisiae slowed by influenza A NS1, growth recovery by OD600. Potency, µM (top dose mostly 46.1 µM), inactives show at the top dose activity, positive = more growth. 270,000 tested, 0.4% active. AID 2326, 2010; also: actives are rising curves; nearly all actives have a fitted effect of over 50% in size
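S. cerevisiae expressing influenza A NS1, grown in glucose, washed, then diluted 1:100 into pH 6.0 -URA galactose medium with 23 nl compound. Growth recovery read as OD600; NS1-free strain serves as control.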
* = called active by the depositor; ? = inconclusive; nt = no result given; & = joins results of further samples; [ ] = another dose, or the depositor's remark. Unless noted, calls follow the shape of the dose curve; as a rule, active means well fitted rising curve with a large enough effect; inconclusive means small, poorly fitted or top-dose-only effect; inactive means no such curve, though single readings can be large or run the other way. Potency is read from the fitted curve at half-maximal effect.

Each structure is followed by: Cruzain inh Det	SARS PLP yeast	RE007 growth inh	StopGo reporter	MARV entry inh	LASV entry inh	Cruzain inh noDet	NS1 function inh
Cc1cc(C(C)(C)C)cc(C)c1C[n+]1ccc2ccccc2c1
  nt	0%	-24%	?	nt	nt	nt	-4%
S=C(Nc1ccccc1)N1CCOCCOCCN(C(=S)Nc2ccccc2)CCOCCOCC1
  nt	0%	8%	-8%	5.6µM*	17%	nt	0%
O=C(NC1CC(=O)N(c2ccccc2)C1)N1CCN(C(=O)c2ccco2)CC1 (centres undefined)
  nt	3%	0%	3%	?	-9%	nt	nt
O=C(Oc1ccccc1)c1cc2ccccc2o1
  -1.2%	2%	-9%	-8%	-6%	0%	1%	-2%
O=C(NCc1ccccn1)c1ccc2c(=O)n3nc(Nc4ccccc4)sc3nc2c1
  nt	?	13%	-5%	nt	nt	nt	1%
CC(C)C(=O)NC(Nc1ccccc1F)C(Cl)(Cl)Cl (centres undefined)
  6.7%	-9%	11%	-9%	-10%	?	7%	-19%
O=C(Nc1ccc(Cl)cc1)C1CCCN(S(=O)(=O)c2cnc[nH]2)C1 (centres undefined)
  -4.0%	-9%	6%	-24%	nt	nt	-2%	3%
CNC(=O)C1CCCN(c2nnc(C)c3c(C)n(-c4ccccc4)nc23)C1 (centres undefined)
  -6.1%	nt	nt	-16%	nt	6%[46.1 µM]	-13%	nt
COC(=O)C1CCN(C(=O)Cc2ccc(Br)cc2)CC1
  2.6%	2%	-9%	15%	20%	?	4%	-5%
O=[N+]([O-])c1cccc(/C=N/Nc2nccnc2Cl)c1
  -4.0%	-9%	-14%	16%	13%	12%	0%	6%
Cc1cc(C)n(C(=O)c2ccc(NC(=O)C3COc4ccccc4O3)cc2)n1 (centres undefined)
  -2.2%	nt	-27%	-1%	13%[46.1 µM]	8%	-8%	-94%
O=C(CCC(=O)c1ccc(F)cc1)OC1CCOC1=O (centres undefined)
  -3.4%	2%	1%	4%	19%	-17%	-6%	?
Cc1cccc(NC(=O)NCCc2ccc(Cl)cc2)c1
  nt	-1%	10%	43%[activator]	19%[46.1 µM]	-5%	nt	-3%
COc1cccc(N/C(SCc2cccc([N+](=O)[O-])c2)=C(/C#N)C(=O)NCc2cccs2)c1
  -5.4%	4%	-6%	15%	-19%	?	?	13%
O=C(CCN1CCCO1)NC1CCCc2c1cnn2-c1ccccc1F (centres undefined)
  nt	1%	10%	-12%	nt	nt	nt	12%
CCCN1CN(Cc2ccccc2)CNC1=S
  0.1%	11µM*	-22%	?	9%	8%	10%	0%
CCNC(=S)N/N=C(\C)c1cccc(OC)c1
  nt	4%	-6%	3%	nt	nt	nt	-4%
COc1ccc(-c2cc(C(=O)Nc3c(Cl)cc(Cl)cc3Cl)c3ccccc3n2)cc1OC
  -6.6%	7%	-1%	-17%	11%	?	8%	16%
COCCCN1C(=O)C(=O)/C(=C(/O)c2ccc(C)cc2)C1c1ccccc1 (centres undefined)
  -6.0%	2%	-6%	13%	9%	-3%	4%	-5%
CCn1c(CSc2ncccn2)nnc1SCC(=O)N1c2ccccc2CC1C (centres undefined)
  4.4%	0%	3%	0%	6%	0%	-7%	-12%
COC(=O)C1=CN(Cc2ccc(OC)c(OC)c2)C=C(C(=O)OC)C1c1cccc(OC)c1OC
  nt	-1%	11%	-22%	?	?	nt	4%
COC(=O)NCc1ccc(CNC(=O)OC)cc1
  8.0%	-4%	21%	18%	0%	0%	12%	-2%
CCC1C(c2ccccc2)=CCC(C(=O)O)C1C (centres undefined)
  nt	nt	12%	-15%	-9%[46.1 µM]	0%[46.1 µM]	nt	nt
CCCOc1ccc(CN(CCO)CCO)cc1C(=O)OC
  5.6%	-7%	13%	20%	2%	6%	1%	-4%
CC(C)c1cc(C(=O)N/N=C/c2c[nH]c3ccccc23)n[nH]1
  nt	1%	2%	33%[activator]	nt	nt	nt	-3%
C1=NCCc2c1[nH]c1ccccc21
  nt	nt	-2%	-2%	?	5µM*	nt	nt
CC(C)(C)CC(=O)Nc1cccc2c1CCCC2
  3.3%	-10%	22%	-9%	-11%	3%	2%	2%
O=C(CCn1c(=O)[nH]c2ccccc2c1=O)N1CCN(c2ccc(Cl)cc2)CC1
  1.7%	0%	-11%	?	-2%	3%	10%	-21%
CCN(CC)c1ccc(/C=N/Nc2ccc(C)cc2)c(O)c1
  -8.8%	?	-21%	7%	14%	5%	-3%	13%
COc1ccc(Cl)cc1NC(=O)CN(C)C(=O)c1ccc(-n2cncn2)cc1
  nt	-15%	1%	0%	12%[46.1 µM]	-3%[46.1 µM]	nt	nt
CC(CC(=O)NCCc1ccc(F)cc1)c1ccccc1 (centres undefined)
  nt	-1%	-18%	53%[activator]	nt	nt	nt	-7%
COc1ccccc1NC(=S)NNC(=O)c1ccc(O)cc1
  2.2%	7%	-1%	69%[activator]	?	4%	3%	1%
Cc1ccc(C)c(N(CC(=O)NN=C2CCCCCCC2)S(C)(=O)=O)c1
  -0.5%	-2%	2%	-19%	?	8%	-5%	3%
CCN=C1SC(CC(=O)Nc2ccc(C(F)(F)F)cc2)C(=O)N1CC (centres undefined)
  1.1%	-4%	3%	nt	-4%	?	-4%	10%
CC(C)C[C@@H](CO)N1CCN(CC(C)C)CCC1=O
  nt	0%	0%	-24%	nt	nt	nt	-9%
O=C(O)CCC(=O)N1N=C(c2ccc(Br)cc2)CC1c1cccs1 (centres undefined)
  nt	7%	-9%	-6%	16%[46.1 µM]	11%[46.1 µM]	nt	4%
CCN(CC)C(=O)CSc1nc2cc3c(cc2c(=O)n1CCCCCC(=O)NCCc1ccc(OC)c(OC)c1)OCO3
  1.2%	nt	nt	3%	nt	16%[46.1 µM]	26%	nt
CCCn1c(SCC(=O)Nc2ccc3c(c2)OCO3)n[nH]c1=O
  nt	1%	21%	34%[activator]	12%[46.1 µM]	-6%[46.1 µM]	nt	nt
CCN(CC(=O)NC1CCS(=O)(=O)C1)S(=O)(=O)c1ccccc1Cl (centres undefined)
  nt	-3%	-4%	-2%	-2%[46.1 µM]	-4%[46.1 µM]	nt	3%
COc1ccc(CCn2c(NCc3ccco3)nc3c2c(=O)[nH]c(=O)n3C)cc1
  4.4%	3%	16%	-5%	3%	-24%	-19%	-5%
CCc1ccccc1NC(=O)Nc1c(C)n(C)n(-c2ccccc2)c1=O
  -1.6%	4%	-18%	0%&6%	29%	-17%	-4%	-5%
CCc1ccccc1NC(=O)Cn1c(=O)n(CCCCCC(=O)NCc2ccc(C)cc2)c(=O)c2sccc21
  -0.7%	nt	nt	-12%	0%[46.1 µM]	-19%[46.1 µM]	-8%	nt
Cc1ccc(C(=O)NCCc2nnc3ccc(SCC(=O)Nc4c(C)cc(C)cc4C)nn23)cc1
  -0.7%	?	-14%	?	3%	7%	20%	-7%
CCN(CC)S(=O)(=O)c1cccc(-c2n[nH]c(=S)n2C(C)COC)c1 (centres undefined)
  nt	-11%	11%	-7%	9%[46.1 µM]	-12%	nt	nt
CC(=O)c1cccc(NC(=O)Cn2cnc(S(=O)(=O)N3CCCCC3)c2)c1
  nt	6%	6%	-15%	nt	nt	nt	3%
Cc1c(-n2cc(C(=O)O)c(=O)c3cc(F)c(N4CCCC(O)C4)c(F)c32)c(=O)n(-c2ccccc2)n1C (centres undefined)
  nt	1%	2%	-9%	20%	4%	nt	nt
CCOc1ccc(C(=O)c2c(N)c(-c3nc(-c4ccc5c(c4)OCO5)cs3)c3ccccn23)cc1
  -1.7%	nt	nt	6%	-1%[46.1 µM]	-3%[46.1 µM]	-19%	nt
Cc1ccc(C=C2C(=O)c3ccccc3C2=O)o1
  -5.5%	?	-3%	-12%	19%	13%	-15%	-5%
COc1ccc(CCNC(=O)[C@@H](NC(=O)N2CCn3c2nc2ccccc23)C(C)C)cc1OC
  nt	0%	-6%	-6%	nt	nt	nt	-14%
CC(=O)c1ccc(NC(=O)c2cc(=O)[nH]c3ccccc23)cc1
  nt	16%	0%	-11%	6%[46.1 µM]	-3%[46.1 µM]	nt	18%
CCC(Sc1nc2c(c(=O)[nH]1)CCC2)C(=O)Nc1cccc(OC)c1 (centres undefined)
  -3.3%	2%	17%	-2%	-10%	-9%	14%	?
CCOC(=O)C1CCCN(c2ncnc3c2nnn3C)C1 (centres undefined)
  -1.2%	nt	nt	-12%	nt	?	8%	nt
CCSc1nc(O)cc(=O)n1-c1ccc(OC)cc1
  1.2%	12%	-3%	-7%	?	-16%	2%	?
COc1ccc(OCCCC(=O)NCC(C)C)cc1
  2.5%	9%	-6%	?	7%	13%	-16%	-10%
O=[N+]([O-])c1ccccc1S(=O)(=O)NCCSCc1ccco1
  nt	-2%	21%	17%	?	-6%	nt	nt
O=C(NCc1ccccn1)c1cccc(NS(=O)(=O)c2ccccc2F)c1
  -0.1%	-11%	22%	20%	25%	1%	2%	22%
COCCNC(=S)NCc1cccs1
  nt	0%	-21%	15%	-25%[46.1 µM]	4%[46.1 µM]	nt	0%
COc1ccc(OC)c(-n2c(-c3ccc(S(C)(=O)=O)cc3)cc(C=O)c2C)c1
  2.0%	1%	-18%	3%	?	3%	27%	?
O=C(COC(=O)c1cccnc1Cl)NC12CC3CC(CC(C3)C1)C2
  nt	nt	33%	-9%	0%	?	nt	nt
N#Cc1ccc(-c2ccc(F)cc2)nc1Oc1ccccc1
  -8.5%	4%	-6%	-8%	6%	?	3%	-6%
CCOC(=O)c1n[nH]n2c1nc(=O)c1ccccc12
  nt	0%	9%	5%	3%[46.1 µM]	5%[46.1 µM]	nt	-3%
N#Cc1ccc(OCC(=O)Nc2ccncc2)cc1
  nt	0%	4%	?	5%[46.1 µM]	5%	nt	17%
Cc1onc(-c2c(Cl)cccc2Cl)c1C(=O)N1CCN(Cc2ccccc2)CC1
  nt	3%	9%	?	?	nt	nt	-12%
